Source: PubChem BioAssay (Broad Institute)
Ecoli rRNA inh = inhibits bacterial ribosomal RNA function over humanized ribosomes. E. coli WT GFP vs humanized-ribosome RFP mutants, fluorescence, 24 h; active compounds read low; DMSO median 0, no signal -100. GFP signal change (wild-type ribosome), % (no concentration beside the values). 350,000 tested, 1.6% active;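 active = significant combined selectivity score with lowered wild-type GFP, culture density cut under 30%, mutant RFP and density less affected; inactive = any of these conditions unmet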; also: one replicate is shown; some compounds called inactive have numbers as strong as hits
Ecoli rRNA inh OD600 = second read-out of Ecoli rRNA inh, no call of its own (marks repeat the call); OD600 change, %; measured here: OD600 growth;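 optical density of the mix in the first replicate; 0 = DMSO median and -100 = no signal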
Ecoli rRNA inh RFP = second read-out of Ecoli rRNA inh, no call of its own (marks repeat the call); RFP signal change, %; measured here: RFP humanized mutant strains;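 first replicate; 0 = DMSO median and -100 = no signal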
* hit, by the source's call.

1) C[C@@H]1CN([C@H](C)CO)C(=O)Cc2cc(NC(=O)Nc3ccc(C(F)(F)F)cc3)ccc2O[C@H]1CN(C)CC1CC1
2) Cc1ccc(-c2ccc3c(c2)O[C@H](CN(C)C(=O)C2CC2)[C@@H](C)CN([C@H](C)CO)S3(=O)=O)cc1
3) COc1ccc(S(=O)(=O)Nc2cccc3c2O[C@H](CN(C)C(=O)Nc2ccc(C(F)(F)F)cc2)[C@H](C)CN([C@@H](C)CO)C3=O)cc1
4) CC(=O)N(C)C[C@H]1Oc2cc(C#CC3CCCCC3)ccc2S(=O)(=O)N([C@H](C)CO)C[C@@H]1C
5) COc1ncnc2c1ncn2CCCNCc1ccc2c(c1)OCO2
6) O=C(Nc1ccccc1F)N1CCCCN2[C@H](C1)[C@H](c1ccc(C#Cc3cccnc3)cc1)[C@@H]2CO
Assay by compound | 1 | 2 | 3 | 4 | 5 | 6
Ecoli rRNA inh | -1.4 | -5.5 | -5.3 | -1.4 | -3.7 | -9.1
Ecoli rRNA inh OD600 | 1.7 | -21.8 | -2.7 | -33.2 | 10.3 | -13.6
Ecoli rRNA inh RFP | 4.4 | 2.0 | -1.0 | -4.2 | -3.9 | 1.4

7) C[C@@H]1CN([C@@H](C)CO)C(=O)c2cccc(NC(=O)Nc3ccc(F)cc3)c2O[C@@H]1CN(C)Cc1ccc(C(F)(F)F)cc1
8) O=C(Nc1ccc(Cl)cc1)N[C@H]1CC[C@H](CCNC(=O)c2ccccc2F)O[C@H]1CO
9) Cn1nc(C(C)(C)C)cc1N1C(=O)CCC1(C)C(=O)Nc1ccc2c(c1)OCCO2 (stereo unspecified)
10) Cc1noc(C)c1NC(=O)N(C)C[C@H]1Oc2ccc(NS(=O)(=O)c3cccs3)cc2C(=O)N([C@@H](C)CO)C[C@H]1C
11) CCC(=O)N(C)C[C@@H]1Oc2cc(C3=CCCC3)ccc2S(=O)(=O)N([C@@H](C)CO)C[C@H]1C
12) C[C@@H]1CCCCO[C@@H](CN(C)CC2CCCCC2)[C@H](C)CN([C@H](C)CO)C(=O)c2cc(NS(=O)(=O)c3ccc(Cl)cc3)ccc2O1
Assay by compound | 7 | 8 | 9 | 10 | 11 | 12
Ecoli rRNA inh | -11.2 | -1.3 | 3.4 | 2.6 | -3.3 | -54.5
Ecoli rRNA inh OD600 | -44.5 | -1.7 | 2.0 | 8.7 | -17.6 | -71.2
Ecoli rRNA inh RFP | -3.6 | -1.0 | -0.4 | -0.6 | -5.7 | -14.7

13) CCc1nc2ccc(C(=O)Nc3cccc(NS(C)(=O)=O)c3)cn2c1N(CCC(C)C)CCN(C)C
14) C[C@H]1CN([C@@H](C)CO)C(=O)c2cc(-c3cccc(C(=O)N(C)C)c3)cnc2O[C@H]1CN(C)S(=O)(=O)c1ccc(F)cc1
15) C[C@@H]1CN([C@@H](C)CO)C(=O)c2cc(N(C)C)ccc2O[C@@H](C)CCCCO[C@@H]1CN(C)Cc1ccc(C(=O)Nc2ccccc2N)cc1
16) C[C@@H]1CN([C@H](C)CO)C(=O)c2cccc(NC(=O)C3CCCCC3)c2O[C@H]1CN(C)S(=O)(=O)c1ccc(F)cc1
17) C[C@H](CO)N1C[C@H](C)[C@@H](CN(C)C(=O)Nc2ccc(F)cc2)Oc2ccc(NC(=O)Nc3ccc4c(c3)OCO4)cc2C1=O
18) C[C@@H]1CN([C@H](C)CO)C(=O)c2cc(-c3ccncc3)cnc2O[C@@H]1CN(C)C(=O)CN1CCOCC1
Assay by compound | 13 | 14 | 15 | 16 | 17 | 18
Ecoli rRNA inh | 3.8 | 4.1 | -3.9 | 1.9 | -1.2 | 3.4
Ecoli rRNA inh OD600 | 8.5 | 1.7 | -0.3 | 10.3 | -4.3 | 20.2
Ecoli rRNA inh RFP | 2.2 | -3.0 | -1.9 | -1.0 | 0.6 | -1.5

19) Cc1ccccc1S(=O)(=O)N1C[C@@H](O)COC[C@@H]2O[C@H](CC(=O)N3CCCCC3)CC[C@H]21
20) Cc1cn([C@H]2C[C@H](O)[C@@H](CNCc3ccc4ncccc4c3)O2)c(=O)[nH]c1=O
21) CC(C)Nc1ncnc2c1ncn2[C@H]1CN(Cc2ccc3c(c2)OCO3)C[C@@H](CO)O1
22) Cc1noc(C)c1S(=O)(=O)N(C)C[C@@H]1OCCCC[C@@H](C)Oc2ccc(NC(=O)Nc3ccccc3)cc2C(=O)N([C@H](C)CO)C[C@H]1C
23) CC=Cc1ccc2n(c1=O)C[C@@H]1[C@@H](CO)[C@H](C(=O)N[C@H](C)c3ccccc3)[C@H]2N1CC (mixture of isomers)
24) COCCCN1C(=O)C(CC(=O)NCc2cccs2)CC(C(=O)N(C)C)=C1C (stereo unspecified)
Assay by compound | 19 | 20 | 21 | 22 | 23 | 24
Ecoli rRNA inh | 3.2 | 5.1 | 3.8 | 1.1 | 3.4 | 2.6
Ecoli rRNA inh OD600 | 12.2 | 9.6 | 16.1 | 4.0 | 5.3 | 8.0
Ecoli rRNA inh RFP | -2.6 | 4.0 | -1.0 | 1.7 | 2.1 | -6.5

25) CCNC(=O)C[C@H]1CC[C@H]2[C@@H](COC[C@H](O)CN2C(=O)Nc2c(C)noc2C)O1
26) O=C(C1CCC1)N1CC2(C1)[C@@H](c1ccccc1)[C@@H](CO)N2CC1CCCC1
27) COc1ccc(NC(=O)N(C)C[C@H]2Oc3c(NC(=O)Nc4cccc5ccccc45)cccc3C(=O)N([C@H](C)CO)C[C@@H]2C)cc1
28) C[C@@H]1CCCCO[C@@H](CN(C)C(=O)CCCN(C)C)[C@H](C)CN([C@@H](C)CO)C(=O)c2cc(NS(=O)(=O)c3cn(C)cn3)ccc2O1
29) C[C@H](CO)N1C[C@H](C)[C@H](CN(C)S(=O)(=O)c2ccc(F)cc2)Oc2ccc(NC(=O)C3CCCCC3)cc2C1=O
30) COc1ccccc1N1CCN(S(=O)(=O)CCNC(=O)c2ccco2)CC1
Assay by compound | 25 | 26 | 27 | 28 | 29 | 30
Ecoli rRNA inh | 2.8 | -38.5 | -0.5 | 3.9 | 0.5 | -4.5
Ecoli rRNA inh OD600 | 6.1 | -68.6 | 5.8 | 9.8 | -3.4 | -9.5
Ecoli rRNA inh RFP | -8.8 | 11.9 | 0.4 | -3.3 | -0.7 | -1.2

31) CC(=O)Oc1cc2c(cc1OC(C)=O)C(=O)CCCC2
32) CC(=O)c1ccc(OC2(C)CCN(Cc3csc4ccccc34)C2)cc1 (stereo unspecified)
33) CCC(=O)Nc1ccc2c(c1)C(=O)N(C)C[C@@H](OC)[C@H](C)CN(C(=O)c1ccncc1)[C@@H](C)CO2
34) CO[C@@H]1CN(C)C(=O)c2ccc(NC(=O)c3ccc(F)cc3)cc2OC[C@H](C)N(C)C[C@H]1C
35) Cc1csc(N=Nc2ccc(N(C)C)cc2)[n+]1[O-]
36) COC(=O)c1cc2c(c3c4cc(C)ccc4n(S(=O)(=O)c4cccc(C)c4)c13)C(=O)N(Cc1ccc(C(F)(F)F)cc1)C2
Assay by compound | 31 | 32 | 33 | 34 | 35 | 36
Ecoli rRNA inh | 4.0 | -6.2 | 0.0 | 1.1 | 5.0 | -4.1
Ecoli rRNA inh OD600 | 6.8 | -14.1 | -1.9 | 1.4 | 11.2 | -9.0
Ecoli rRNA inh RFP | -0.9 | 2.6 | 0.3 | -0.4 | 0.9 | -7.3

Ordered by heavy-atom count (highest first): some entries from above
28) C[C@@H]1CCCCO[C@@H](CN(C)C(=O)CCCN(C)C)[C@H](C)CN([C@@H](C)CO)C(=O)c2cc(NS(=O)(=O)c3cn(C)cn3)ccc2O1
36) COC(=O)c1cc2c(c3c4cc(C)ccc4n(S(=O)(=O)c4cccc(C)c4)c13)C(=O)N(Cc1ccc(C(F)(F)F)cc1)C2
29) C[C@H](CO)N1C[C@H](C)[C@H](CN(C)S(=O)(=O)c2ccc(F)cc2)Oc2ccc(NC(=O)C3CCCCC3)cc2C1=O
33) CCC(=O)Nc1ccc2c(c1)C(=O)N(C)C[C@@H](OC)[C@H](C)CN(C(=O)c1ccncc1)[C@@H](C)CO2
32) CC(=O)c1ccc(OC2(C)CCN(Cc3csc4ccccc34)C2)cc1 (stereo unspecified)
35) Cc1csc(N=Nc2ccc(N(C)C)cc2)[n+]1[O-]
Assay by compound | 28 | 36 | 29 | 33 | 32 | 35
Ecoli rRNA inh | 3.9 | -4.1 | 0.5 | 0.0 | -6.2 | 5.0
Ecoli rRNA inh OD600 | 9.8 | -9.0 | -3.4 | -1.9 | -14.1 | 11.2
Ecoli rRNA inh RFP | -3.3 | -7.3 | -0.7 | 0.3 | 2.6 | 0.9

Other results follow:
37) C[C@@H]1CN([C@@H](C)CO)S(=O)(=O)c2ccc(/C=C/c3ccccc3)cc2O[C@@H]1CN(C)C(=O)C1CC1
38) Cc1noc(C)c1S(=O)(=O)Nc1ccc2c(c1)C(=O)N([C@@H](C)CO)C[C@H](C)[C@@H](CN(C)C(=O)Nc1ccc(C(F)(F)F)cc1)OCCCC[C@@H](C)O2
39) CN(C)C(=O)c1ccc(-c2ccccc2[C@@H]2[C@@H](CO)N(C(=O)C3CCCCC3)[C@H]2C#N)cc1
40) Cc1ccc(S(=O)(=O)Nc2cccc3c2O[C@H](CN(C)S(=O)(=O)c2cn(C)cn2)[C@H](C)CN([C@H](C)CO)C3=O)cc1
41) Cc1ccc(S(=O)(=O)Nc2ccc3c(c2)CC(=O)N([C@H](C)CO)C[C@@H](C)[C@@H](CN(C)C)O3)cc1
42) CCCCNC(=O)C1C(c2ccc(OC)cc2)=Nc2ccccc2N1C(=O)c1cccnc1 (stereo unspecified)
Assay by compound | 37 | 38 | 39 | 40 | 41 | 42
Ecoli rRNA inh | -1.9 | 5.4 | -0.8 | 3.4 | 6.8 | 2.8
Ecoli rRNA inh OD600 | -11.4 | 5.5 | 15.3 | 3.8 | 10.1 | 0.8
Ecoli rRNA inh RFP | 1.9 | -0.5 | 0.2 | -1.1 | -0.9 | -0.8

43) O=C(Nc1cccc(F)c1)N1CCCCN2[C@H](C1)[C@H](c1ccc(C#CC3CC3)cc1)[C@@H]2CO
44) COc1ccc(NC(=O)c2cc(-c3ccc(F)cc3C)n[nH]2)cc1OC
45) COc1ccc(CN(C)C[C@H]2OCCCC[C@@H](C)Oc3ccc(NS(=O)(=O)c4ccc(F)cc4)cc3C(=O)N([C@@H](C)CO)C[C@@H]2C)cc1
46) COc1ccc2c3c([nH]c2c1)[C@H](CO)N(C(=O)Nc1ccc(F)cc1)CC31CN(S(=O)(=O)c2ccc(C)cc2)C1
47) COc1ccc([C@H]2CC(=O)C[C@@H](CCn3cc(-c4nccn4C)nn3)O2)cc1
48) CCC(=O)Nc1ccc2c(c1)C(=O)N(C)C[C@@H](OC)[C@@H](C)CN(Cc1cncnc1)[C@@H](C)CO2
Assay by compound | 43 | 44 | 45 | 46 | 47 | 48
Ecoli rRNA inh | 1.6 | -2.7 | 2.9 | -0.4 | 12.8 | 0.6
Ecoli rRNA inh OD600 | -40.7 | 14.6 | -8.1 | 3.4 | 11.1 | 7.3
Ecoli rRNA inh RFP | 21.4 | -0.1 | 5.9 | -2.1 | 0.9 | -1.3

49) COCC#Cc1ccc([C@H]2[C@@H](CO)N3CCCCN(Cc4cccnc4)C[C@@H]23)cc1
50) C[C@H]1CCCCO[C@H](CN(C)S(=O)(=O)c2ccc(Cl)cc2)[C@@H](C)CN([C@@H](C)CO)C(=O)c2cc(NC(=O)C3CCCCC3)ccc2O1
51) C[C@@H]1CCCCO[C@H](CN(C)C(=O)Nc2ccc(F)cc2)[C@@H](C)CN([C@@H](C)CO)C(=O)c2cc(NC(=O)Nc3ccc(C(F)(F)F)cc3)ccc2O1
52) CO[C@H](CN(C)S(=O)(=O)c1ccccc1)[C@@H](C)CN(C(=O)Nc1ccccc1F)[C@@H](C)CO
53) C[C@H](CO)N1C[C@H](C)[C@H](CN(C)C(=O)C2CCCCC2)Oc2ncc(-c3cccc(F)c3)cc2C1=O
54) COc1ccc(S(=O)(=O)N(C)C[C@H]2Oc3ccc(NC(=O)Cc4ccccc4)cc3C(=O)N([C@@H](C)CO)C[C@H]2C)cc1
Assay by compound | 49 | 50 | 51 | 52 | 53 | 54
Ecoli rRNA inh | 4.0 | -0.7 | -6.2 | -0.8 | -0.1 | -1.5
Ecoli rRNA inh OD600 | 14.9 | 0.4 | -4.8 | 5.9 | -4.8 | -11.5
Ecoli rRNA inh RFP | 3.7 | 0.9 | -4.3 | -5.4 | 2.7 | 1.7

55) CS(=O)(=O)N1CC(=O)N2[C@@H](CO)[C@@H](c3ccc(C#CC4CCCC4)cc3)[C@@H]2C1
56) C[C@@H]1CN([C@H](C)CO)C(=O)Cc2cc(NC(=O)CCCCCC(=O)Nc3ccccc3N)ccc2O[C@H]1CN(C)S(=O)(=O)c1cn(C)cn1
57) C[C@@H](O)C#Cc1cnc2c(c1)C(=O)N([C@@H](C)CO)C[C@H](C)[C@@H](CN(C)Cc1ccc(-c3ccccc3)cc1)O2
58) C[C@H]1CN([C@@H](C)CO)C(=O)c2cc(-c3ccc(C(=O)N(C)C)cc3)cnc2O[C@H]1CN(C)C(=O)C1CC1
59) CO[C@H]1CN(C)C(=O)c2cc(NC(=O)C3CC3)ccc2OC[C@H](C)N(CCc2ccccc2)C[C@H]1C
60) C[C@H](CO)N1C[C@H](C)[C@H](CN(C)Cc2ccccn2)Oc2cc(Br)ccc2S1(=O)=O
61) C[C@@H]1CCCCO[C@@H](CN(C)Cc2ccc(C(=O)O)cc2)[C@H](C)CN([C@H](C)CO)C(=O)c2cc(NC(=O)NC3CCCCC3)ccc2O1
Assay by compound | 55 | 56 | 57 | 58 | 59 | 60 | 61
Ecoli rRNA inh | -2.9 | 4.3 | -2.9 | 4.8 | 1.0 | -0.3 | 2.0
Ecoli rRNA inh OD600 | 7.4 | 4.2 | -21.0 | 6.2 | -1.7 | -5.4 | 7.3
Ecoli rRNA inh RFP | -0.3 | -2.0 | 9.2 | 0.8 | -0.9 | -4.1 | -4.0

Only part of the results is shown; the hit share may differ from the screen's.
